# HSV replic up = enhancers of HSV replication in host cells, fold increase, host cell viability; HSV replication augmentation in cells; maximum fold increase; 220,000 tested, 0.005% active;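 active = peak rise of 1.5-fold or more in the series; inconclusive = self-fluorescent or not available for retest; tested in PC3 cells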;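 also: first round at 10 µM; read as green reporter fluorescence; hits show the peak of a series up to 25 µM; 1 = signal of infected wells without compound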
# Insulin prom inh = inhibitors of insulin promoter-driven GFP, primary screen, imaging, TRM-6 cells (human fetal islet line), eGFP reporter, cell count; 130,000 tested, 0.9% active; inhibition, % at 2 µM; reporter expression induced with tamoxifen; AID 1273, 2008;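 active = inhibition above the mean plus 3 SD, with well images judged a real hit on visual review, cut at about 60% in these data, passing the limit was not always enough; inconclusive = inhibition over the cutoff but images rejected on review; inactive = inhibition not above the cutoff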
# PKD1 kinase inh = inhibitors of human PKD1 kinase, biochemical, fluorescence polarization; 200,000 tested, 0.056% active; inhibition, %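 (about 10 µM by stock and volumes)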; AID 797, 2007; Serine/threonine-protein kinase D1 (Homo sapiens), Q15139; PKD1 kinase fluorescence polarization assay;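 active = inhibition of 50% or more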;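 also: controls were vehicle for no effect and a reference inhibitor for full effect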
# RGS16-Gao = modulators of RGS16 binding to Galphao, primary screen, biochemical, human proteins, multiplexed bead flow cytometry; bead-based flow cytometry RGS16-Galphao binding, fluorescence; actives lie on both sides; 220,000 tested, 0.38% active; AID 1441, 2008; binding response (% of control), % at 10 µM; Regulator of G-protein signaling 16 (Homo sapiens) + Guanine nucleotide-binding protein …;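 active = below 25% or above 175%, edge rows of some plates excepted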;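 also: Galphao activated by GDP with aluminum fluoride before binding; 100% = wells without compound and 0% = beads without RGS; some results beyond the cut were filed as inactive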
# Target sequence (O15492 whole entry, looked up): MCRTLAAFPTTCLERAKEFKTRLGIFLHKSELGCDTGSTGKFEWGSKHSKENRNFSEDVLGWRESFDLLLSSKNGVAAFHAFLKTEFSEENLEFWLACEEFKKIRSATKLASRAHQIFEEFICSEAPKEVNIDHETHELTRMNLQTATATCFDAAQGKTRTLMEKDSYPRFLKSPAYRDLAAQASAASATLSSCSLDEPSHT
# Target sequence (P09471 whole entry, looked up): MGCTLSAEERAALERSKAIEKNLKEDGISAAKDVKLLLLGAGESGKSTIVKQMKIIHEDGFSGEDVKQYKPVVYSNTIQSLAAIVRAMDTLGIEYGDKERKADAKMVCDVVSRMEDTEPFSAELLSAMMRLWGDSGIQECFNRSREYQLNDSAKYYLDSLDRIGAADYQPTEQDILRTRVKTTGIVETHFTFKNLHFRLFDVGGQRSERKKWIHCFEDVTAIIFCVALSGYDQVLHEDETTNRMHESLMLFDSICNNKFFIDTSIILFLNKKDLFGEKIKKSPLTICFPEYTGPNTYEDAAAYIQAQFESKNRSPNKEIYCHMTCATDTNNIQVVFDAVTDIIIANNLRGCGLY
# GALR2 agonist = GALR2 receptor agonists, primary screen, cell-based; GALR2-expressing cells, agonist activation read-out; activation, %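 (tested at 5 µM)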; 140,000 tested, 0.48% active;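 active = above mean plus 3 SD of all compounds, about 5% in these data, not always enough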;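 also: 0% = vehicle buffer wells and 100% = reference agonist at full effect; tested in CHO reporter cells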
# Target sequence (O43603 whole entry, looked up): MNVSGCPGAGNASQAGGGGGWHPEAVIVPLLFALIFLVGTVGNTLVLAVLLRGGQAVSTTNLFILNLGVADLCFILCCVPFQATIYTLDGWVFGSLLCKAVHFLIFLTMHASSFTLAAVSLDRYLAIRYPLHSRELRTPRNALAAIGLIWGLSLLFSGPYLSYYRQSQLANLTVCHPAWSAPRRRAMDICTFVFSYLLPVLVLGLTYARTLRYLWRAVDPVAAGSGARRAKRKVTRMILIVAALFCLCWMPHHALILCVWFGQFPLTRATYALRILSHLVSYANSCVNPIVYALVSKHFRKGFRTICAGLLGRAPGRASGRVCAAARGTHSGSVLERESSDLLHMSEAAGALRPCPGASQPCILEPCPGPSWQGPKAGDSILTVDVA
# Insulin prom inh cell count = also measured in Insulin prom inh; calls as there; normalized cell count, %; measured here: cell count, toxicity; reference of the scale not given here;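 cells exposed to compound for 48 h; stained nuclei by imaging scaled within each plate; lower means fewer cells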
# HSV replic up primary fold = second read-out of HSV replic up, no call of its own (marks repeat the call); fold increase; compound at 10 µM; measured here: primary screen fold increase 10 uM; tested in PC3 cells;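 GFP signal in the first replicate; 1 = infected wells without compound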
# Starred values were filed as active, the others as inactive; i = inactive; ? = inconclusive; . = no result given.
Molecule,HSV replic up,HSV replic up primary fold,Insulin prom inh,Insulin prom inh cell count,PKD1 kinase inh,RGS16-Gao,GALR2 agonist
CCNC(=O)COC(=O)c1cc(S(=O)(=O)N2CCCc3ccccc32)ccc1Cl,i,0.92,.,.,.,91,.
CCC(C)n1cnc2c(=O)oc3ccccc3c21 (configuration not stated),i,1.1,-11,108,8,113,1.9
O=C(O)COc1ccccc1Cc1ccccc1,i,0.96,-9,109,-10,96,0.6
CN(C)S(=O)(=O)c1cccc(NC(=O)CN2C(=O)C3C4C=CC(C4)C3C2=O)c1 (configuration not stated),i,1.1,-26,133,-12,103,-0.7
CCOC(=O)NC(=O)CSc1ccc2ccccc2n1,i,0.92,.,.,-3,100,.
N#Cc1cn(CC(=O)O)c2ccccc12,.,.,.,.,-4,92,0.5
Cc1nc(-c2cccc(NC(=O)Cc3ccccc3)c2)cs1,i,0.93,.,.,-5,96,.
COc1ccc(NC(=O)CCCCn2c(=O)[nH]c3ccccc3c2=O)cc1,i,0.83,.,.,-4,101,-1.3

# (listing goes on)
Molecule,HSV replic up,HSV replic up primary fold,Insulin prom inh,Insulin prom inh cell count,PKD1 kinase inh,RGS16-Gao,GALR2 agonist
O=C(COC(=O)Cc1ccccc1F)Nc1cc(S(=O)(=O)N2CCOCC2)ccc1N1CCCC1,i,1.1,.,.,-3,100,-1.6
CN(C)/C=C/c1oc2ccc(O)cc2c1[N+](=O)[O-],i,0.78,-10,157,-3,101,.
CC(=O)N=C1SC2CS(=O)(=O)CC2N1Cc1ccc(C)cc1 (configuration not stated),i,1.1,.,.,.,100,.
O=C(NNC(=S)Nc1ccccc1)c1ccncc1,.,.,.,.,-8,90,-1.3
COc1cccc(C(=O)CC(C(=O)O)c2ccc(F)cc2)c1 (configuration not stated),.,.,8,82,-5,103,.
COc1cc2cc(C)c3nnc(SCC(=O)Nc4cc(C)on4)n3c2cc1OC,i,0.81,.,.,5,106,.
Cc1noc(/C=C/c2cccs2)c1S(=O)(=O)N1CCC(C(=O)NCCCN2CCC(C)CC2)CC1,i,0.75,.,.,2,99,.
Nc1c(S(=O)(=O)c2ccccc2)c2nc3ccccc3nc2n1CCN1CCOCC1,i,0.89,14,94,-7,116,-2.0

# New compounds follow
Molecule,HSV replic up,HSV replic up primary fold,Insulin prom inh,Insulin prom inh cell count,PKD1 kinase inh,RGS16-Gao,GALR2 agonist
CCOC(=O)NC(=O)c1cn(N(C)c2ncc(C(F)(F)F)cc2Cl)c(=O)[nH]c1=O,i,0.93,.,.,0,101,.
CCN(CC)S(=O)(=O)c1ccc(OC)c(NC(=O)c2cc(=O)[nH]c3ccccc23)c1,i,0.94,33,168,-4,99,.
CCOC(=O)NC(=O)/C(C=Nc1ccc(Cl)cc1)=C(\C)O,i,0.99,.,.,4,104,.
COc1ccc2oc(C(=O)c3ccccc3)c(N)c2c1,i,0.86,-42,84,-5,76,-0.3
CC(=O)c1c(C)[nH]c(C(=O)OCC(=O)N2c3ccccc3NC(=O)C2(C)C)c1C,i,0.86,-64,46,-14,92,-1.0
Cc1nc(NCc2ccco2)nc2c1C(=O)CC(C)C2 (configuration not stated),i,1,-75,105,-3,102,-0.3
O=C(O)/C=C/C(=O)NCc1ccccn1,i,0.98,-6,100,-4,102,.
Oc1c(C=Nc2ccc(Cl)cn2)sc2ccccc12,?,.,.,.,.,102,.

# Part of the list above, with two lines to a compound:
# Results follow in this order: HSV replic up | HSV replic up primary fold | Insulin prom inh | Insulin prom inh cell count | PKD1 kinase inh | RGS16-Gao | GALR2 agonist
CCN(CC)S(=O)(=O)c1ccc(OC)c(NC(=O)c2cc(=O)[nH]c3ccccc23)c1
→ i | 0.94 | 33 | 168 | -4 | 99 | .
CCOC(=O)NC(=O)/C(C=Nc1ccc(Cl)cc1)=C(\C)O
→ i | 0.99 | . | . | 4 | 104 | .
COc1ccc2oc(C(=O)c3ccccc3)c(N)c2c1
→ i | 0.86 | -42 | 84 | -5 | 76 | -0.3

# (listing goes on)
Molecule,HSV replic up,HSV replic up primary fold,Insulin prom inh,Insulin prom inh cell count,PKD1 kinase inh,RGS16-Gao,GALR2 agonist
CCNc1nc(NCC)nc(C(=O)OCCO)n1,i,0.73,.,.,-14,107,-3.3
Cn1cccc1-c1nc2ccc(NC(=O)c3ccco3)cc2[nH]1,i,0.77,45,93,-8,96,-0.6
COCCNC(=O)[C@H]1C[C@@H]1[C@H](NP(=O)(c1ccccc1)c1ccccc1)c1ccccc1,i,0.83,-55,121,7,113,-1.0
N#Cc1sc(C(N)=O)c(-c2ccccc2)c1-c1ccccc1,i,1,.,.,.,106,.
COCCN1Cc2cccc(C(=O)NCc3ccc4c(c3)OCO4)c2C1=O,i,0.92,22,55,-9,20*,-3.2
COc1ccccc1OCCC(=O)OCC(=O)NCc1ccccc1,i,1.1,.,.,4,99,-0.2
Cn1c(=O)cc(NCc2ccccc2)[nH]c1=O,i,1,34,101,2,92,-2.4
CN(c1cc(=O)n2ccccc2n1)C1CCCCC1,i,0.85,.,.,-3,101,-0.4

# More results:
Molecule,HSV replic up,HSV replic up primary fold,Insulin prom inh,Insulin prom inh cell count,PKD1 kinase inh,RGS16-Gao,GALR2 agonist
CCn1cc(/C=C/C(=O)Nc2ccn(Cc3c(F)c(F)cc(F)c3F)n2)cn1,i,0.82,20,73,5,111,-0.6
CNc1oc(C)nc1S(=O)(=O)c1ccc(C)cc1,.,.,-19,94,-7,99,-0.4
CCOC(=O)c1c(NC(=O)c2nn(C)cc2[N+](=O)[O-])sc(C)c1C,i,0.94,-73,83,-1,104,.
CC(C)(C)CN1CCNC(=O)C1CC(=O)NCCN1CCCc2ccccc21 (configuration not stated),i,0.99,.,.,-1,106,.
Cc1cc(NC(=O)c2ccccc2Oc2ccccc2)no1,i,1.1,-19,30,0,95,-1.2
O=C1c2ccccc2C(Nc2ccc(S(=O)(=O)N3CCCCCC3)cc2)N1Cc1ccco1 (configuration not stated),i,0.89,.,.,15,93,-1.9
CCCNC(=O)c1ccc(CNc2c(N3CCC(C(=O)OCC)CC3)c(=O)c2=O)cc1,i,1.1,.,.,2,102,0.0
Cc1ccc2c(CC(=O)Nc3sccc3C(N)=O)coc2c1,.,.,0,117,-1,104,0.6

# (next part)
Molecule,HSV replic up,HSV replic up primary fold,Insulin prom inh,Insulin prom inh cell count,PKD1 kinase inh,RGS16-Gao,GALR2 agonist
COC(=O)Cc1c(O)ccn(C2CC2)c1=O,i,0.89,26,95,-1,102,.
Cc1nc([N+](=O)[O-])cn1CC(=O)NCCCO,i,0.92,-212,1,8,106,-1.3
Cc1ccccc1/C(N)=N/OC(=O)c1cccs1,i,0.97,45,130,0,139,-1.1
COc1ccc(-c2cc3ncc(C(C)=O)c(C)n3n2)cc1,i,0.98,-14,117,-2,116,.
CO/N=C(/CNC(=O)c1ccc(F)cc1)c1ccc(Cl)cc1,.,.,.,.,3,101,-3.8
CSc1nn2c(C)c(C)c(C)nc2c1C#N,i,1,-322,71,-5,105,.
COc1ccccc1-c1cc(-c2ccc(C)cc2)nc(SCc2nnc(-c3ccccc3)o2)c1C#N,i,1.1,.,.,-8,105,-1.0
O=S(=O)(c1ccccc1)N1CCC(n2nnc3cc(F)ccc32)CC1,i,0.97,4,123,-7,97,-1.7

# (list continues)
Molecule,HSV replic up,HSV replic up primary fold,Insulin prom inh,Insulin prom inh cell count,PKD1 kinase inh,RGS16-Gao,GALR2 agonist
Oc1ccccc1/C=N/N1CCN(c2ccccn2)CC1,i,0.97,.,.,.,96,.
CC(=O)Nc1ccc(CN2CCN(c3cccc(C(F)(F)F)c3)CC2)cc1,i,0.97,.,.,-6,73,0.8
CCOc1ccc(NC(=O)CN(c2cccc(C(F)(F)F)c2)S(C)(=O)=O)cc1,i,0.89,7,89,4,100,-0.6
CCOc1ccc(S(=O)(=O)Nc2ccccc2C(=O)N/N=C/c2c(OC)ccc3ccccc23)cc1,i,1.1,.,.,-2,105,1.0
O=C(Nc1ccccc1)C1=C[C@H](C2CC2)C[C@H](OCCCCO)O1,i,1,.,.,2,95,.
C#CCOCCOCCOCCNc1nc(N2CCN(C(=O)[C@H](CCC(=O)O)n3cc(C(N)Cc4ccc(O)cc4)nn3)CC2)nc(N2CCN(C(=O)[C@H](Cc3ccc(O)cc3)n3cc(C(N)[C@H](C)CC)nn3)CC2)n1 (some centres not stated),i,0.83,.,.,.,98,.
N#CC1=C(SCC(=O)Nc2cccc3cccnc23)NC(=O)C(C#N)C12CCCCC2 (configuration not stated),i,1.1,-79,156,0,96,-0.7
O=C(Nc1ncn[nH]1)c1ccc(Cl)c(S(=O)(=O)N2CCCCCC2)c1,i,0.99,8,156,-4,102,-2.1

# Results in Insulin prom inh cell count, HSV replic up primary fold and RGS16-Gao (6 entries from above):
SMILES,Insulin prom inh cell count,HSV replic up primary fold,RGS16-Gao
CO/N=C(/CNC(=O)c1ccc(F)cc1)c1ccc(Cl)cc1,.,.,101
O=C(O)COc1ccccc1Cc1ccccc1,109,0.96,96
CC(=O)Nc1ccc(CN2CCN(c3cccc(C(F)(F)F)c3)CC2)cc1,.,0.97,73
CCOC(=O)NC(=O)/C(C=Nc1ccc(Cl)cc1)=C(\C)O,.,0.99,104
CCN(CC)S(=O)(=O)c1ccc(OC)c(NC(=O)c2cc(=O)[nH]c3ccccc23)c1,168,0.94,99
Cn1cccc1-c1nc2ccc(NC(=O)c3ccco3)cc2[nH]1,93,0.77,96

# Further structures follow.
Molecule,HSV replic up,HSV replic up primary fold,Insulin prom inh,Insulin prom inh cell count,PKD1 kinase inh,RGS16-Gao,GALR2 agonist
COc1ccc(NC(=O)c2nc[nH]c2C(=O)NCC(=O)OC(C)(C)C)cc1,i,0.79,.,.,.,108,.
CC1(C)CC(=O)/C(=N/Nc2ccc(Cl)cc2)CO1,i,1,.,.,.,99,.
CCOc1ccc(S(=O)(=O)/N=C(/c2ccccc2)N(C)C)cc1,i,1,.,.,2,102,.
O=C(/C=C/c1cccc2ccccc12)c1ccncc1,i,1.1,.,.,10,99,-0.3
COc1cc(C2c3c(-c4ccccc4O)n[nH]c3C(=O)N2Cc2ccco2)cc(OC)c1OC (configuration not stated),i,0.85,.,.,.,102,.
O=C(Nc1ccc(Cl)cc1F)C1CCN(S(=O)(=O)c2cccnc2)CC1,i,0.93,-32,109,-5,99,-3.1
COCCNC(=O)c1nn2cccnc2c1Cl,i,0.98,17,96,-4,82,-0.8
Cc1cc(NC(=O)CSc2nnc(-c3ccncc3)n2-c2ccc(F)cc2)no1,i,0.92,.,.,-1,100,.

# Profiles, quoted from the list.
# O=C(/C=C/c1cccc2ccccc12)c1ccncc1 as listed: HSV replic up = i; HSV replic up primary fold = 1.1; Insulin prom inh = .; Insulin prom inh cell count = .; PKD1 kinase inh = 10; RGS16-Gao = 99; GALR2 agonist = -0.3
# CCOc1ccc(S(=O)(=O)/N=C(/c2ccccc2)N(C)C)cc1 as listed: HSV replic up = i; HSV replic up primary fold = 1; Insulin prom inh = .; Insulin prom inh cell count = .; PKD1 kinase inh = 2; RGS16-Gao = 102; GALR2 agonist = .

# Later entries.
Molecule,HSV replic up,HSV replic up primary fold,Insulin prom inh,Insulin prom inh cell count,PKD1 kinase inh,RGS16-Gao,GALR2 agonist
O=C(Cn1nnc2ccccc21)OCc1ccccc1,i,0.84,.,.,-5,102,.
Cc1ccc(S(=O)(=O)N2CCC(=O)N(C(COCc3ccc(Cl)cc3Cl)Cc3ccccc3)CC2)cc1 (configuration not stated),i,0.84,-48,106,-5,57,-1.4
CC(/C=C/c1ccccc1)=N\NC(=O)c1cc(C)nc2ccccc12,i,0.72,.,.,.,106,.
CCOC(=O)CN1CC23C=CC(O2)C(C(=O)Nc2ccc(OCC)cc2)C3C1=O (configuration not stated),i,0.91,.,.,-8,90,-3.2

# A second format for some results above.
CC(/C=C/c1ccccc1)=N\NC(=O)c1cc(C)nc2ccccc12
  HSV replic up = i	HSV replic up primary fold = 0.72	Insulin prom inh = .	Insulin prom inh cell count = .	PKD1 kinase inh = .	RGS16-Gao = 106	GALR2 agonist = .

CCOC(=O)CN1CC23C=CC(O2)C(C(=O)Nc2ccc(OCC)cc2)C3C1=O (configuration not stated)
  HSV replic up = i	HSV replic up primary fold = 0.91	Insulin prom inh = .	Insulin prom inh cell count = .	PKD1 kinase inh = -8	RGS16-Gao = 90	GALR2 agonist = -3.2

# Random draw from the library; about 1.3% have a hit in one of these screens.
